GLA inh pH 4.5: qHTS Assay for Inhibitors of Human alpha-Galactosidase at pH 4.5; purified enzyme, 4-MU-alpha-Gal fluorescence, pH 4.5; Alpha-galactosidase A (Homo sapiens), P06280; 230,000 tested, under 10 active; activity change, negative = inhibition, % at 105 µM; inconclusive = small, poorly fitted or top-dose-only inhibition, or a rising curve; inactive = flat fitted curve, though single readings scatter; no compound was filed as active;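 also: 0% = full activity with enzyme and -100% = basal without enzyme; dose as in the result columns while the protocol names 77 µM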
Rango release inh: qHTS Assay for Inhibitors of RanGTP induced Rango (Ran-regulated importin-beta cargo) - Importin beta complex dissociation | Potency, µM (top dose mostly 46.1 µM), for inactives: at the highest dose activity change, negative = inhibition | Biochemical FRET Rango-importin beta, RanGTP-induced dissociation | actives 0.071% (n = 340,000) | Snurportin-1 (Homo sapiens) + GTP-binding nuclear protein Ran (Homo sapiens) + Importin … | AID 540253, 2011; active means falling FRET ratio curve, often poorly fitted, with flat reads before Ran was added; inconclusive means other falling curves, or compound fluorescence or quenching; inactive means flat or rising ratio curve;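 also: potency is read from the fitted curve at half-maximal effect; % of control where 0% means no effect; nearly all actives have a fitted effect of over 45% in size; -100% = wells without RanGTP and RCC1; the record marks most hits as doubtful in a second field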
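Rango/importin beta premix (0.1/0.25 uM final), PBS + 1 mM DTT + 0.02% Tween-20 + 0.1% BSA; cpd 5 min RT; FRET pre-read; + RanGTP-RCC1 (0.6 uM Ran, 2 mM GTP, 0.2 uM RCC1); 45 min RT; FRET post-read, ex 430, em 486/530 nm.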
miR-21 FLuc: qHTS Assay for Modulators of miRNAs and/orActivators of miR-21. HeLa miR-21 FLuc reporter, luciferase, 48 h. Potency, µM (doses to about 38.3 µM), for inactives: at the top dose reporter change, positive = more light. 340,000 tested, under 10 active; active = well fitted rising curve with a large enough effect; inconclusive = small, poorly fitted or top-dose-only effect; inactive = no such curve, though single readings can be large or run the other way;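 also: % of control where 0% means no effect; miR-21 action dims this reporter so a rising signal means less miR-21 action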
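Luminescence from a firefly luciferase reporter carrying a miR-21 binding site downstream, stably expressed under a CMV promoter in HeLa cells that make miR-21 endogenously, reports miRNA modulation after 48 h compound exposure up to approximately 40uM final.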
Rango-impB inh: qHTS Assay for Inhibitors of Rango (Ran-regulated importin-beta cargo) - Importin beta complex formation. Importin subunit beta-1 (Homo sapiens), Q14974. Rango CFP/YFP FRET sensor + importin beta, 45 min. Potency, µM (top dose mostly 92.2 µM), without a hit: at the highest dose inhibition of complex formation. actives 0.031% (n = 340,000); active = rising FRET ratio curve, often small or poorly fitted; inconclusive = mostly compound fluorescence or quenching in the first reads; inactive = flat curves in all reads;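 also: potency is read from the fitted curve at half-maximal effect; 0% = DMSO wells and 100% = buffer wells lacking importin beta; nearly all actives have a fitted effect of over 15% in size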
Target sequence (Q14974 whole entry, looked up): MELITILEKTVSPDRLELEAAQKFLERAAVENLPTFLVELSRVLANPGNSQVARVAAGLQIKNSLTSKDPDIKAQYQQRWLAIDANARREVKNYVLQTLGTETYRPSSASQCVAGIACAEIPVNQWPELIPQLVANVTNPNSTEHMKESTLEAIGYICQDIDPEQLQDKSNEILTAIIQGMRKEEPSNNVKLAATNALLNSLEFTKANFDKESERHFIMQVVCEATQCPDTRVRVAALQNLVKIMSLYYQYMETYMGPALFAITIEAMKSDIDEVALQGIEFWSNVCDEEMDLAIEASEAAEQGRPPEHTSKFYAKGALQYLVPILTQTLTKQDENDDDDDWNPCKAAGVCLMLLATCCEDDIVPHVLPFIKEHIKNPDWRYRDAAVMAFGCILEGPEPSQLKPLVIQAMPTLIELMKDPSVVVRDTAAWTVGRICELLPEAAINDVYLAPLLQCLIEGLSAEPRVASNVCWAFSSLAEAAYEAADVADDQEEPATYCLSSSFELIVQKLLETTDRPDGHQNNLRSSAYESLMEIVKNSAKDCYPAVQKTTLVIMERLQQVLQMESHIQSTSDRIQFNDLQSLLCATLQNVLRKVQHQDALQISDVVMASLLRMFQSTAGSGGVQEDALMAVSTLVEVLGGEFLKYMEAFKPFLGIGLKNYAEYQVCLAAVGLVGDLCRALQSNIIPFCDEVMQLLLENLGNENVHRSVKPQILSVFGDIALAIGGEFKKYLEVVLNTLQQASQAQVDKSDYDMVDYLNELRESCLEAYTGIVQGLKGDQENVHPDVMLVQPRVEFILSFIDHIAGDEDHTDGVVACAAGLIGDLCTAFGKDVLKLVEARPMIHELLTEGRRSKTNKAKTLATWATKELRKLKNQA
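FRET biosensor Rango (snurportin 1 IBB between N-terminal EYFP and C-terminal Cerulean), 50 nM in PBS/1 mM DTT/0.02% Tween-20/0.1% BSA, preincubated 5 min RT with compound; 0.125 microM importin beta added, 45 min RT, CFP/YFP FRET ratio read.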
An asterisk follows results filed as active; ? = inconclusive; nt = no result given; & = joins results of further samples.

GLA inh pH 4.5 | Rango release inh | miR-21 FLuc | Rango-impB inh | Molecule
-13 | -7% | -12% | -0.3% | O=C(NN=C1CCN(Cc2ccccc2)CC1)c1cc(Br)ccc1O
2 | 4% | -1% | -6.9% | c1ccc2c(c1)OCC(c1nn3c(Cn4nnc5ccccc54)nnc3s1)O2 (centres undefined)
-4 | -2% | 30% | -0.6% | COc1cc(C(=O)Nc2nc(-c3ccc(C)cc3)cs2)ccc1OCC(=O)N1CCOCC1
-5 | 0% | -2% | 2.1% | CNC(=O)CSc1nnc(-c2ccco2)n1-c1ccccc1OC
-4 | 0% | 19% | -3.6% | Cc1cc(C(=O)CSc2nnnn2-c2ccc(O)cc2)c(C)n1Cc1ccc2c(c1)OCO2
-12 | 11% | 0% | 0.5% | Cc1csc(N(C)C(=O)CSc2nnc(COc3ccccc3C)o2)n1
-6 | -5% | -3% | 1.2% | O=C1NC(=S)S/C1=C/c1ccc(Oc2cnccn2)cc1
-1 | -6% | -2% | -1.6% | CCN1CCN(C(=O)NCc2ccccc2)CC1
-10 | -1% | 3% | -1.5% | CCCNc1nc(OC(C(F)(F)F)C(F)(F)F)nc(OC(C(F)(F)F)C(F)(F)F)n1
-10 | -25% | -20% | ? | Cc1ccc2c(ccc[n+]2CC(=O)c2ccccc2)c1
nt | 1% | nt | -4.0% | COC(=O)[C@@]12CCCCN1[C@H](c1ccc(-c3ccc(F)cc3)c(OC)c1)[C@@H]1C(=O)N(C)C(=O)[C@@H]12
-1 | -2% | -4% | -4.7% | Cc1ccc(C(=O)NN2C(=O)C3C(C2=O)C2C=CC3C23CC3)cc1 (centres undefined)
11 | 0% | -3% | ? | O=C(COC(=O)c1cc2ccccc2cc1O)Nc1cccnc1Cl
-4 | 17% | -5% | -2.4% | COC(=O)c1ccc(C)c(NC(=O)C2COc3ccccc3O2)c1 (centres undefined)
7 | -2% | -2% | ? | O=C1CSC(c2ccc([N+](=O)[O-])cc2)N1CCN1CCCCC1 (centres undefined)
-5 | 2% | -2% | 2.0% | O=C(CSc1ccc(-c2cccnc2)nn1)c1ccc([N+](=O)[O-])cc1
-1 | -9% | -16% | -3.6% | Clc1ccc(-c2csc(Nc3cccnc3)n2)cc1
0 | -21% | 9% | -2.3% | CCCCn1nc2cc(C(=O)N[C@H](C)C3CCCCC3)ccc2c1OCC
-3 | 19% | -8% | 6.7% | O=C(CCc1ccccc1)Nc1ncc([N+](=O)[O-])s1
nt | 15% | nt | 0.0% | CCOc1ccc(CCNC(=O)COC(=O)c2ccc(Br)o2)cc1OCC

Reprinted from the part before: two entries, followed by the next part.
GLA inh pH 4.5 | Rango release inh | miR-21 FLuc | Rango-impB inh | Molecule
-3 | 19% | -8% | 6.7% | O=C(CCc1ccccc1)Nc1ncc([N+](=O)[O-])s1
nt | 15% | nt | 0.0% | CCOc1ccc(CCNC(=O)COC(=O)c2ccc(Br)o2)cc1OCC
0 | 1% | -46% | 0.1% | CCOC(=O)c1c(C)nc(C(Cl)(Cl)Cl)nc1N
4 | -12% | -2% | 1.4% | CCC(=O)N1CCc2cc(Br)cc(S(=O)(=O)NCC3CCCO3)c21 (centres undefined)
nt | 14% | -18% | 0.6% | CCOc1ccc(-c2ccc(SCC(=O)NC3CCCCC3)nn2)cc1
8 | 21% | -6% | 2.9% | Fc1cc(Cl)ccc1NC(=S)NCCN1CCOCC1
1 | -5% | 8% | 0.2% | O=C(CSc1nn(-c2ccccc2)c(=S)s1)NC(=O)NCc1ccco1
nt | ? | 1% | ? | CCN1CCc2c(sc(NC(=O)c3ccc(S(=O)(=O)N4CCCC4)cc3)c2C(=O)NC)C1
-10 | -10% | -12% | -1.0% | O=C(CCc1ccc(S(=O)(=O)NCCc2ccccc2)cc1)Nc1ccc2c(c1)OCCO2
4 | -11% | -9% | 4.6% | Fc1ccc(-c2oncc2-c2nnnn2-c2ccccc2)cc1F
-20 | -4% | -3% | 3.8% | Cc1ccc(-n2c(N)c(Br)c(=O)[nH]c2=O)cc1C
8 | -10% | -1% | -4.3% | COc1ccc(S(=O)(=O)NCCc2nnc3ccc(SCC(=O)Nc4cc(C)on4)nn23)cc1
-3 | 0% | -3% | 3.0% | COC(=O)C(C)NC(=O)C(C)NC(=O)OCc1ccccc1 (centres undefined)
-8 | 2% | -4% | -1.9% | COc1ccc(-c2cc(C(=O)Nc3c(C)nn(Cc4ccccc4)c3C)no2)cc1
0 | -6% | 6% | -4.9% | COc1ccc(C(=O)Nc2ccccc2N2CCCCC2)cc1[N+](=O)[O-]
-3 | 0% | 7% | 1.0% | CCOC(=O)c1[nH]c2ccc(OC)cc2c1NC(C)=O
nt | 11% | -3% | -3.7% | COc1cccc(CN2CCNC(=O)C2CC(=O)NCC2CCOCC2)c1 (centres undefined)
-10 | 11% | -5% | -0.9% | Cc1occc1-c1nnc(SCC(=O)c2ccc(Cl)cc2)n1CC1CCCO1 (centres undefined)
nt | 10% | -5%&-2% | 0.1% | COc1cccc(NC(=O)Cn2nnc(C(=O)NCCc3ccccc3)c2N)c1
6 | 5% | 2% | -6.8% | COc1ccc(Sc2ncnc3onc(C)c23)cc1
0 | -10% | -1% | 1.8% | O=C(NC1CCCC1)C(c1ccc(Cl)cc1)N(Cc1ccc(F)cc1)C(=O)CCl (centres undefined)
-2 | 18% | -1% | -0.2% | CC(=O)NC1=NN(C(C)=O)C2(S1)C(=O)N(CC(C)C)c1ccc(C)cc12 (centres undefined)
5 | -3% | 15% | -0.1% | O=C(NC(=S)Nc1ccc(Cc2ccncc2)cc1)c1ccccc1F
nt | -3% | 8% | 1.3% | CCC(NC(=O)c1cc(COc2cncc(Cl)c2)on1)c1ccncc1 (centres undefined)
4 | 0% | -31% | -1.2% | CCn1c(C)nc2cc(C(=O)NNC(=S)Nc3ccc(OC)cc3)ccc21
11 | 22% | -8% | 6.3% | COCCCn1c(Cc2csc(Nc3cccc(Cl)c3)n2)nnc1SCC(=O)OC1CCCCC1
6 | -4% | -3% | -1.9% | COc1ccc(NC(=S)NCCc2ccccc2)c(OC)c1
nt | -2% | nt | -0.2% | COC(=O)c1c(C)[nH]c(C(=O)OCC(=O)c2ccc(C)s2)c1C
nt | 9% | nt | -0.5% | COC(=O)c1ccc2c(=O)[nH]c(COC(=O)c3c(-c4ccccc4Cl)noc3C)nc2c1
0 | -7% | -76% | -1.3% | O=C1OC(c2ccccc2)=N/C1=C\N1CCCCC1
1 | 19% | -5% | 8.3% | CC1CCCN(C(=O)Cn2nnc(-c3cccnc3)n2)C1 (centres undefined)
5 | 10% | -49% | 0.3% | C/C(CC(=O)Nc1ccc(Cl)cc1C(F)(F)F)=N\NC(=O)c1cccs1
nt | 1% | 1% | ? | Oc1ccc(/C=N/N2CCCCC2)c(O)c1O
-13 | -8% | -22% | -1.1% | O=C(NC(C(=O)c1ccccc1)n1cnccc1=O)c1ccccc1 (centres undefined)
3 | 15% | -8% | -1.6% | Cc1noc(C)c1S(=O)(=O)Nc1ccc(O)c2c(=O)cc(-c3ccccc3Cl)oc12
nt | -1% | nt | -2.9% | CN(CC(=O)Nc1ccccc1Cl)C(=O)COC(=O)c1ccc(=O)n(Cc2ccccc2)n1
nt | 3% | nt | 2.9% | CC1CCC(NC(=O)Cn2cnc3sccc3c2=O)CC1 (centres undefined)
-9 | 1% | -4% | -0.7% | Cc1ccc(-c2noc(C3CCN(S(=O)(=O)c4ccc5c(c4)OCCO5)CC3)n2)o1
-1 | 28% | 2% | -2.9% | Nc1cccc(/C=C/C(=O)O)c1
nt | -26% | -13% | -0.5% | CCn1cc(C(=O)NN)c(=O)c2cc(F)c(N3CCCCC3)cc21
nt | 19% | -4% | 0.7% | CCCC(C(=O)NC1CCCC1)N(C(=O)Cn1nnc(-c2ccc(C)o2)n1)c1ccccc1F (centres undefined)
13 | -1% | -4% | -3.6% | O=C(CC1(O)C(=O)N(CN2CCOCC2)c2ccccc21)c1ccccc1 (centres undefined)

Three compounds drawn at random from the list so far:
GLA inh pH 4.5 | Rango release inh | miR-21 FLuc | Rango-impB inh | Molecule
5 | 10% | -49% | 0.3% | C/C(CC(=O)Nc1ccc(Cl)cc1C(F)(F)F)=N\NC(=O)c1cccs1
nt | 19% | -4% | 0.7% | CCCC(C(=O)NC1CCCC1)N(C(=O)Cn1nnc(-c2ccc(C)o2)n1)c1ccccc1F (centres undefined)
1 | 19% | -5% | 8.3% | CC1CCCN(C(=O)Cn2nnc(-c3cccnc3)n2)C1 (centres undefined)

Next section
GLA inh pH 4.5 | Rango release inh | miR-21 FLuc | Rango-impB inh | Molecule
nt | -7% | nt | 2.6% | CNC(=S)NCc1ccc(Cl)cc1
nt | 2% | nt | 0.0% | O=C(COc1ccc(-n2cnnn2)cc1)Nc1ccc(F)c(Cl)c1
nt | 0% | nt | 3.5% | COc1ccc(NS(=O)(=O)c2cccc(C(=O)NNC(=O)c3cncc(Br)c3)c2)cc1
-6 | 1% | -6% | 3.2% | Cc1cc(C)c2c3c(sc2n1)C1(CCSCC1)C(C#N)=C(N)O3
7 | -2% | -2% | -1.2% | Cc1cc(C)c(NC(=O)C2CCC(=O)N2)c(C)c1 (centres undefined)
5 | 12% | -5% | -0.2% | Cc1ccc(S(=O)(=O)N(C)CC(=O)NC2CCCC2)cc1
1 | -9% | -3% | -0.6% | COc1ccccc1NS(=O)(=O)c1cccc(C(=O)N/N=C/c2ccc(OCC(=O)O)cc2)c1
3 | nt | -3% | nt | Cc1ccc(C)n1-c1ccc(-c2nnco2)cc1
nt | 10% | 2% | 1.9% | C=C(c1ccccc1O)n1ccnc1
2 | -2% | -1% | -5.3% | O=C(Nc1ccc2c(c1)OCO2)c1ccc(S(=O)(=O)NCC2CCCO2)cc1 (centres undefined)
-8 | -12% | -4% | -1.1% | Cn1c(/C=C/N2CCOCC2)c(C(=O)c2ccc(Br)cc2)c(=O)n(C)c1=O
nt | -13% | nt | -0.7% | COc1cc(C(C)=O)ccc1OCC(=O)Nc1ccccc1N1CCCCC1
-2 | -14% | -17% | 0.0% | CCC(=O)c1ccc(SC(=O)N(C)C)cc1O
-1 | -31% | ? | 1.2% | O=C(Cc1ccc([N+](=O)[O-])cc1)N/N=C/c1ccc([N+](=O)[O-])o1
-2&2 | -1% | 0% | 5.2% | C=C(C)C1(O)OC(=O)C=C1OC (centres undefined)
-3 | 10% | 3% | 5.8% | COC(=O)CNC(=O)C(Cc1c[nH]c2ccccc12)NC(=O)Oc1ccccc1 (centres undefined)
-15 | -11% | -18% | -0.2% | O=[N+]([O-])c1ccc(NC(=S)N2CCc3ccccc3C2)cc1
nt | -8% | nt | 7.6% | COc1ccc(CNC(=O)c2ccc(S(=O)(=O)N3CCOCC3)cc2)cc1
0 | 2% | -2% | -0.3% | COc1ccc(CNC(=O)/C=C/c2cc([N+](=O)[O-])ccc2OC(F)F)cc1
-8 | -5% | -7% | -2.1% | CCOc1ccc(-n2cnnn2)cc1S(=O)(=O)NC1CC1
nt | 3% | -52% | -0.2% | O=C(OCc1ccc(Cl)c(Cl)c1)c1ccc[nH]1
-3 | -10% | -7% | -1.8% | O=C(CSc1nnc(-c2cccs2)n1Cc1ccco1)Nc1ccc2c(c1)OCO2
nt | 33% | nt | -0.1% | O=C(COC(=O)c1c(F)cccc1F)NCc1ccc2c(c1)OCO2
-13 | nt | 4% | nt | CCCCNS(=O)(=O)c1ccc2nc(-c3cccnc3)cc(C(=O)NCCCN(CC)CC)c2c1
nt | 19% | 1% | 1.6% | Cc1ccc(CS(=O)Cc2ccc(C(=O)NC3CCCC(C)C3C)o2)cc1 (centres undefined)
-4 | 10% | -4% | 2.4% | c1ccc(-c2ccccc2OCCCN2CCCC2)cc1

Only part of the results is shown, so the mix of outcomes need not match the whole.
